Source: PubChem BioAssay
Rango dissoc inh = inhibitors of RanGTP-induced Rango-importin beta complex dissociation. O95149+P62826. Biochemical FRET Rango-importin beta, RanGTP-induced dissociation. Potency, µM (series often up to 46.1 µM), without a hit: at the highest dose activity change, negative = inhibition. 340,000 compounds, 0.071% hits. AID 540253; active means falling FRET ratio curve, often poorly fitted, with flat reads before Ran was added; inconclusive means other falling curves, or compound fluorescence or quenching; inactive means flat or rising ratio curve;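 also: potency is read from the fitted curve at half-maximal effect; % of control where 0% means no effect; nearly all actives have a fitted effect of over 45% in size; -100% = wells without RanGTP and RCC1; the record marks most hits as doubtful in a second field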
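Compounds sat 5 min at room temperature with 0.1 uM Rango biosensor plus 0.25 uM importin beta, then FRET pre-read. RanGTP-RCC1 (0.6 uM Ran, 2mM GTP, 0.2 uM RCC1) added for 45 min, and the CFP/YFP post-read measured blocked complex dissociation.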
Rango complex inh = Rango-importin beta binding inhibition. Q14974. Potency, µM (doses to about 92.2 µM), for inactives: at the top dose inhibition of complex formation. 340,000 compounds, 0.031% hits. Rango CFP/YFP FRET sensor + importin beta, 45 min; active = rising FRET ratio curve, often small or poorly fitted; inconclusive = mostly compound fluorescence or quenching in the first reads; inactive = flat curves in all reads;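 also: potency is read from the fitted curve at half-maximal effect; 0% = DMSO wells and 100% = buffer wells lacking importin beta; nearly all actives have a fitted effect of over 15% in size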
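FRET biosensor Rango (snurportin 1 IBB between N-terminal EYFP and C-terminal Cerulean), 50 nM in PBS/1 mM DTT/0.02% Tween-20/0.1% BSA, preincubated 5 min RT with compound; 0.125 microM importin beta added, 45 min RT, CFP/YFP FRET ratio read.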
GLA inh pH 4.5 = alpha-galactosidase A (human) inhibition, pH 4.5; P06280; purified enzyme, 4-MU-alpha-Gal fluorescence, pH 4.5; activity change, negative = inhibition, % at 105 µM; 230,000 tested, under 10 active; AID 1467; inconclusive = small, poorly fitted or top-dose-only inhibition, or a rising curve; inactive = flat fitted curve, though single readings scatter; no compound was filed as active;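 also: 0% = full activity with enzyme and -100% = basal without enzyme; dose as in the result columns while the protocol names 77 µM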
Target sequence (P06280 whole entry, looked up): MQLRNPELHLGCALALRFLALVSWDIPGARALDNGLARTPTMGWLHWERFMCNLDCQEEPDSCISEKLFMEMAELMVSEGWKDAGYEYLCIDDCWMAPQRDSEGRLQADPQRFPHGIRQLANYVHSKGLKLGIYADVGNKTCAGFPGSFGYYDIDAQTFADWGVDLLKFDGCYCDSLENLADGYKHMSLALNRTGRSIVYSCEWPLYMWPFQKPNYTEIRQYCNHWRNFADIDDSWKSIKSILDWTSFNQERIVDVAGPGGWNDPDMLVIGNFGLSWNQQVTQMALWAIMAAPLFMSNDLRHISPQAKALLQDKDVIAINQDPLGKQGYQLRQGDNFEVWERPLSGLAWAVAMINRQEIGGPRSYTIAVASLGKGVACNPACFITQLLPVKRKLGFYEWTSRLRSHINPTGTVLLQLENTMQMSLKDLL
miR-21 reporter = miR-21 reporter, rising signal | HeLa miR-21 FLuc reporter, luciferase, 48 h | Potency, µM (top dose mostly 38.3 µM), for inactives: at the top dose reporter change, positive = more light | 340,000 tested, under 10 active; active = well fitted rising curve with a large enough effect; inconclusive = small, poorly fitted or top-dose-only effect; inactive = no such curve, though single readings can be large or run the other way;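 also: % of control where 0% means no effect; miR-21 action dims this reporter so a rising signal means less miR-21 action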
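HeLa cells endogenously expressing miR-21, stably carrying CMV-driven firefly luciferase with a downstream miR-21 binding site, 2000 cells/well. Titrations up to approximately 40 uM, 48 hours; luciferase luminescence read.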
Starred values were filed as active, the others as inactive; u = inconclusive; x = no result given; & = joins results of further samples; [ ] = remark or other dose.

SMILES | Rango dissoc inh | Rango complex inh | GLA inh pH 4.5 | miR-21 reporter
Cn1cccc1C(=O)NCC1CCCCC1 | -10% | 1.5% | x | -12%
O=C(CSc1ncccc1-c1nc2ccccc2[nH]1)NC1CC1 | 35% | 0.5% | -2 | -14%
N=c1c2c3c(sc2ncn1Nc1ccccc1)CCC3 | 13% | 0.7% | -1 | -22%
CCOC(=O)NC(=O)CSc1nnc(C2CC2)n1Cc1ccco1 | -11% | 0.1% | 3 | 0%
O=C(NC1CCCC1)C1C2C=CC3(CN(Cc4cccs4)C(=O)C13)O2 (centres undefined) | -8% | 2.2% | 1 | -12%
COc1cc(C)c(Br)cc1S(=O)(=O)NCCN1CCOCC1 | -12% | 2.9% | 0 | -3%
O=C1CC(c2ccccc2Cl)C2=C(COC2=O)N1 (centres undefined) | -6% | 2.8% | 0 | -2%
Cn1c(=O)c(-c2ccccc2[N+](=O)[O-])c(Cl)c2ccccc21 | -5% | 0.2% | x | -12%
O=C(C1CCC(=O)N1Cc1ccccc1Cl)N1CCN(c2cccc(Cl)c2)CC1 (centres undefined) | 0% | -1.5% | 0 | 2%
Cn1ccnc1SCC(=O)Nc1cccc2ccccc12 | -18% | -1.1% | 9 | -26%
CN(c1nc(-c2ccc(Br)cc2)cs1)C1CCS(=O)(=O)C1 (centres undefined) | 8% | 3.6% | -3 | -32%
COc1ccc(NC(=O)CN(C)C(=O)Cc2c[nH]c3ccccc23)cc1 | -17% | u | x | x
COc1cccc(CC2(CO)CCCN(Cc3cn[nH]c3-c3ccccc3)C2)c1 (centres undefined) | 3% | 0.0% | -6 | 2%
CC(C(=O)NCc1ccccc1)N1C(=O)CN(C)C(=O)c2ccccc21 (centres undefined) | 11% | 0.4% | 0 | -2%
CSc1ncnc2[nH]ccc12 | 18% | 0.0% | x | x
C=CCn1c(SCC(=O)NC2CC2)nnc1-c1ccccn1 | 20% | 4.2% | x | 1%
CC(=NCc1ccco1)C1=C(O)c2ccccc2C1=O | -8% | u | 1 | -32%
Cn1c(=O)c2c(ncn2CC(=O)N2CCCCCC2)n(C)c1=O | -8% | 2.5% | 2 | 3%
O=c1[nH]c2ccccc2cc1CN(c1ccccc1)S(=O)(=O)c1ccccc1 | 4% | 3.3% | -6 | -3%
Cn1c(SCC(=O)c2ccccc2)nnc1-c1cccnc1 | 8% | u | -8 | -26%

Entries above that contain an NH in an aromatic ring, in the order listed:
SMILES | Rango dissoc inh | Rango complex inh | GLA inh pH 4.5 | miR-21 reporter
O=C(CSc1ncccc1-c1nc2ccccc2[nH]1)NC1CC1 | 35% | 0.5% | -2 | -14%
COc1ccc(NC(=O)CN(C)C(=O)Cc2c[nH]c3ccccc23)cc1 | -17% | u | x | x
COc1cccc(CC2(CO)CCCN(Cc3cn[nH]c3-c3ccccc3)C2)c1 (centres undefined) | 3% | 0.0% | -6 | 2%
CSc1ncnc2[nH]ccc12 | 18% | 0.0% | x | x
O=c1[nH]c2ccccc2cc1CN(c1ccccc1)S(=O)(=O)c1ccccc1 | 4% | 3.3% | -6 | -3%

More records:
SMILES | Rango dissoc inh | Rango complex inh | GLA inh pH 4.5 | miR-21 reporter
CC(=O)C1=C(O)C(=O)N(CC#N)C1c1cccs1 (centres undefined) | -3% | -3.9% | -6 | -8%
Clc1ccc(OCCSc2nnnn2C2CCCCC2)cc1 | -7% | -2.9% | 1 | -3%
COc1cccc(NC(=O)COC(=O)CCC2CCCC2)c1 | 10% | u | x | x
Cc1cc(C)c(C(=O)CSc2nnc(-c3cccnc3)n2C)c(C)c1 | -4% | -0.2% | 13 | -18%
CNc1cccccc1=S | 3% | -2.0% | -8 | -2%
CCOc1ccc(CNC(=O)CCS(=O)(=O)Cc2ccc(C)cc2)cc1OC | -5% | -1.2% | 2 | -6%
CCCCN(C(=O)c1cccc(S(=O)(=O)N2CCN(C)CC2)c1)c1c(N)n(CCC)c(=O)[nH]c1=O | 0% | -1.0% | x | x
CCN1C(=O)CC(N2CCC(C(=O)OC)CC2)C1=O (centres undefined) | u | 2.0% | -1 | -8%
O=c1c(Cc2ccccc2)c(O)ccn1Cc1ccco1 | 0% | -0.1% | 8 | 5%
O=C(CCc1nc2ccccc2s1)Nc1cccnc1 | -17% | -1.8% | 4 | -12%
O=[N+]([O-])c1ccc(OCCCCCN2CCOCC2)cc1 | 9% | 3.5% | x | 0%
CCN(CC)S(=O)(=O)c1cc(NC(=O)COC(=O)CCc2nc3ccccc3s2)ccc1C | -4% | -1.5% | -9 | -1%
COc1cccc(/C=C/C(=O)OCC(=O)NCCc2ccccc2)c1 | 0% | -3.6% | -2 | 1%
COc1ccc(S(=O)(=O)NCCc2c[nH]c3ccc(C)cc23)cc1 | -8% | -1.1% | x | -10%
C/C(=N\NC(=O)Cc1ccc(F)cc1)c1ccc(O)cc1 | 1% | -5.4% | -18 | -4%
COCCNC(=S)NNC(=O)c1cc(C2CC2)nc2ccccc12 | 16% | -0.9% | x | 1%
CC1(C)NC(=O)N(CCOCCOc2cccc(Oc3ccccc3)c2)C1=O | 1% | -2.7% | 0 | -11%
C#CCNC(=O)C1=C[C@@H](c2ccccc2)[C@H](CCCO)[C@@H](OCC)O1 | 1% | 2.2% | -7 | 25%
CNC(=O)CSc1nc2ccccc2c(=O)n1C1CCCCC1 | -9% | 2.4% | x | -7%
Cc1noc(C)c1S(=O)(=O)N(CC(=O)NC1CCCC1)c1ccc(C(C)C)cc1 | 4% | -1.4% | x | 2%
Cc1cccc(N2CCN(C(=S)c3ccc([N+](=O)[O-])cc3)CC2)c1 | -11% | 0.8% | 4 | -5%
c1csc(-c2cnc3ccccc3n2)c1 | -10% | -0.6% | 18 | -42%
Cc1cc(C)cc(C(=O)NCC(=O)OCC(=O)N(C)c2ccccc2)c1 | 4% | -2.7% | -2 | -4%
O=C(CN1CCOc2ccccc21)NCc1ccc(Cl)cc1 | 1% | -1.3% | 2 | -16%
COc1ccccc1CNCC(=O)Nc1cc(S(=O)(=O)N2CCCCCC2)ccc1Cl | 17% | 5.9% | -16 | 24%
c1ccc(-c2nc(-c3ccco3)n3ccccc23)cc1 | u | u | 4 | 3%
Cc1ccc(C)c(N2CCN(c3ccc(N4C(=O)COCC4=O)cc3[N+](=O)[O-])CC2)c1 | 3% | -1.0% | 1 | -4%
Cc1cccc(/C=N/NC(=O)c2cc(C3CC3)nc3ccccc23)n1 | 25% | -0.6% | x | 0%
CCN(C(=O)CN1C(=O)c2ccccc2S1(=O)=O)C1CCCCC1 | 7% | 0.5% | x | x
COc1ccc(O)c(C(=O)c2cc(C#N)c(=O)n(-c3c(C)n(C)n(-c4ccccc4)c3=O)c2)c1 | u | u | 3 | -3%
O=C(Nc1ccc(F)cc1F)N1CCC(c2nc3ccccc3o2)CC1 | 0% | -3.1% | 4[21.1 µM] | 3%
CON(C)S(=O)(=O)c1cccc(C(=O)N(CC(=O)Nc2ccccc2C(F)(F)F)Cc2ccco2)c1 | 14% | 1.4% | x | x
COc1ccc(-c2nc(=S)n3ccsc3n2)cc1OC | -12% | -3.1% | 8 | -18%
O=C(O)c1ccc(-n2nnnc2SCc2cccc(Br)c2)cc1 | -16% | -0.6% | x | -1%
COc1ccc(/C=N/NC(=O)CSc2nnc(CCCc3ccc(OC)c(C)c3)o2)cc1 | -2% | -0.7% | -4 | -13%
Cc1cc(=O)oc2c3c(cc(OCC(=O)N[C@@H](Cc4ccccc4)C(=O)O)c12)OC(C)(C)CC3 | -1% | 5.4% | x | 0%
O=C(CSc1n[nH]c(=O)[nH]c1=O)Nc1cccc(S(=O)(=O)N2CCOCC2)c1 | 16% | 2.1% | -11 | 1%
COC(=O)CCc1c(C)[nH]c(C(=O)OCc2ccccc2)c1C | -6% | 0.4% | -7&-13 | -14%
COc1ccc(NC(=S)Nc2cccc3ccccc23)cc1OC | 2% | -3.4% | x | -15%
COc1ccccc1CNC(=O)COC(=O)Cc1cccs1 | 1% | 8.7% | -21 | -3%
O=C(Nc1ccc(F)cc1)N1CCN(c2ccc(F)cc2)CC1 | 8% | -4.5% | -2 | -1%
CCn1c(-c2cc(-c3ccc(C)c(C)c3)nc3ccccc23)n[nH]c1=S | x | x | -1 | -43%
CCN(CC)CC#Cc1ccc(C)cc1 | 14% | -2.4% | -4 | -4%
CC1(C)C(=O)Nc2ccccc2N1C(=O)c1ccc([N+](=O)[O-])cc1 | -7% | -0.7% | x | 2%
O=C(CN1c2ccccc2S(=O)(=O)c2ccccc21)NCc1ccc(F)cc1 | 3% | 0.3% | x | -6%
Cc1occc1C(=O)N/N=C/c1ccc(N(C)C)cc1 | -3% | -3.3% | 1 | -24%
CCOc1ccc(CCNC(=O)C(CCC(N)=O)NC(=O)OCc2ccccc2)cc1OCC (centres undefined) | -2% | -1.5% | -7 | -4%
COc1ccc(NC(=O)C2CCCN(S(=O)(=O)c3ccc4c(c3)oc(=O)n4C)C2)cc1OC (centres undefined) | -25% | -0.4% | -15 | -4%
OC(COc1c(F)cc(Br)cc1F)CN1CCN(c2ccc(F)cc2)CC1 (centres undefined) | 0% | 4.3% | -8 | -1%
C=CCn1cc(C(=O)NCCOC)c(=O)c2cc(S(=O)(=O)N(CC)CC)ccc21 | 5% | 0.1% | 0 | -2%
CCN1CCN(c2nc(-c3ccncc3)nc3ccccc23)CC1 | x | x | 2 | 19%
CC(C)(C)C(=O)NCCCc1nc2ccccc2n1CCCOc1ccc(Cl)cc1 | 24% | -1.9% | -1 | u
C[C@H](NC(=O)c1ccco1)C(=O)Nc1cc(S(=O)(=O)N2CCCC2)ccc1OCC(F)(F)F | 4% | -1.1% | x | x
COc1cc(Cl)c(C)cc1NC(=O)CSc1cc(Cl)ccc1Cl | -6% | -1.1% | 5 | -12%
COc1cc(CCN2C(=O)N[C@@H](c3cccc(C(F)(F)F)c3)C(C(C)=O)=C2C)cc(OC)c1OC | x | x | -9&-5 | 17%
COc1ccccc1N1CCN(C(=O)CNS(=O)(=O)c2ccc(Br)s2)CC1 | -4% | -2.8% | x | 13%&-1%
CCCc1cc(=O)[nH]c(SCC(=O)NCCCC(=O)OCC)n1 | 1% | -0.4% | -1 | 0%
COc1ccc2nc(SCC(=O)C(C)(C)C)[nH]c2c1 | -7% | 3.7% | -1 | -64%
CC(=O)c1ccc(NC(=O)CCn2c(=O)oc3ccccc32)cc1 | 8% | -3.3% | -2 | -8%
COc1ccc(-c2cc(C(=O)OCC(=O)c3c(N)n(C)c(=O)n(C)c3=O)c3ccccc3n2)cc1 | -1% | -4.0% | -4 | -2%

More records follow:
SMILES | Rango dissoc inh | Rango complex inh | GLA inh pH 4.5 | miR-21 reporter
O=C(CN1CCN(C2CCCCC2)CC1)Nc1ccccc1-c1ccccc1 | 20% | 5.9% | -19 | -11%
CCN1/C(=C/c2ccc3cc(C)ccc3[n+]2C)Sc2ccc3sccc3c21 | u | u | 2 | u
CC(Cc1ccsc1)NC(=O)CCc1nnc(COc2ccccc2)o1 (centres undefined) | 6% | 0.1% | -4 | -15%
NNC(=O)COc1ccc(C(F)(F)F)cc1 | -5% | 2.2% | 8 | 5%

Entries shown so far that contain a Cl atom (8):
SMILES | Rango dissoc inh | Rango complex inh | GLA inh pH 4.5 | miR-21 reporter
O=C1CC(c2ccccc2Cl)C2=C(COC2=O)N1 (centres undefined) | -6% | 2.8% | 0 | -2%
Cn1c(=O)c(-c2ccccc2[N+](=O)[O-])c(Cl)c2ccccc21 | -5% | 0.2% | x | -12%
O=C(C1CCC(=O)N1Cc1ccccc1Cl)N1CCN(c2cccc(Cl)c2)CC1 (centres undefined) | 0% | -1.5% | 0 | 2%
Clc1ccc(OCCSc2nnnn2C2CCCCC2)cc1 | -7% | -2.9% | 1 | -3%
O=C(CN1CCOc2ccccc21)NCc1ccc(Cl)cc1 | 1% | -1.3% | 2 | -16%
COc1ccccc1CNCC(=O)Nc1cc(S(=O)(=O)N2CCCCCC2)ccc1Cl | 17% | 5.9% | -16 | 24%
CC(C)(C)C(=O)NCCCc1nc2ccccc2n1CCCOc1ccc(Cl)cc1 | 24% | -1.9% | -1 | u
COc1cc(Cl)c(C)cc1NC(=O)CSc1cc(Cl)ccc1Cl | -6% | -1.1% | 5 | -12%

Not all compounds are listed; rates above refer to the full screens.
